VDR inh = vitamin D3 receptor (human) inhibition; VDR-SRC2-3 peptide fluorescence polarization, 2 h; Potency, µM, inactives show max response, negative = inhibition, hits mostly inhibitors; 400,000 tested, 0.93% active; P11473; active means well fitted inhibition curve with a large enough effect; inconclusive means small, poorly fitted or top-dose-only effect, or another doubt; inactive means no such curve, though single readings can be large or run the other way; further: series mostly up to about 120 µM
Target sequence (P11473 whole entry, looked up): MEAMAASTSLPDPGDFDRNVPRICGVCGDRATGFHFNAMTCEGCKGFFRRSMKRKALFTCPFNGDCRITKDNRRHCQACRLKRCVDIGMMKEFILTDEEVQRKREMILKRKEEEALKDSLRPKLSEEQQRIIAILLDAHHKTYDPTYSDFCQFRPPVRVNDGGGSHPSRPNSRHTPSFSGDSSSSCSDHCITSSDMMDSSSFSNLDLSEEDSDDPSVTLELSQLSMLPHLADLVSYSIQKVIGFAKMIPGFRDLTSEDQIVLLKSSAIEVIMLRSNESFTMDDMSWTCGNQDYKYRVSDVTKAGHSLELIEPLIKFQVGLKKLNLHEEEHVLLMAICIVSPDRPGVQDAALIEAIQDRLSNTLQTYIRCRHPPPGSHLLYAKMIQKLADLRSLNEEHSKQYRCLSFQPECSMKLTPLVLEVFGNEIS
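Compounds are added to VDR with labelled SRC2-3 coactivator peptide and held 2 h at room temperature. Inhibition of the VDR–peptide interaction is then read as a change in fluorescence polarization.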
* = called active by the depositor; ? = inconclusive; & = joins results of further samples. On the % scale 0 is the no-effect control and ±100 the full control effect; potency means the concentration at half of the fitted maximal effect.

The opening 4 entries as a preview:
VDR inh	compound
5%	CCCCN(C)C(=O)Cn1c(=O)oc2cc(S(=O)(=O)N3CC(C)CC(C)C3)ccc21 (centres undefined)
-21%	NS(=O)(=O)c1ccc(CNC(=O)/C=C/c2ccco2)cc1
-22%	Cc1ccc(CNC(=O)Cc2noc3ccccc23)cc1
11%	C=CCN(Cc1cccc(OC)c1OC)S(=O)(=O)N(C)C

Results (from the top)
VDR inh	compound
5%	CCCCN(C)C(=O)Cn1c(=O)oc2cc(S(=O)(=O)N3CC(C)CC(C)C3)ccc21 (centres undefined)
-21%	NS(=O)(=O)c1ccc(CNC(=O)/C=C/c2ccco2)cc1
-22%	Cc1ccc(CNC(=O)Cc2noc3ccccc23)cc1
11%	C=CCN(Cc1cccc(OC)c1OC)S(=O)(=O)N(C)C
7%	O=C(CCc1ccc(S(=O)(=O)N2CCOCC2)cc1)Nc1nccs1
-12%	O=C(COC(=O)c1c(Cl)cccc1Cl)Nc1cc(Cl)ccc1Oc1ccccc1
-11%	CN(C(=O)CSc1n[nH]c(=O)[nH]c1=O)c1ccccc1
-19%	O=S(=O)(Nc1ccc(O)c2ccccc12)c1ccc(OC(F)(F)F)cc1
-5%	Cc1ccc(NC(=O)CS(=O)CC(=O)NCC2CCCO2)cc1 (centres undefined)
13%	Cn1ncc(N=Cc2ccccc2)c1C(N)=O
?	COc1ccccc1-c1noc(-c2ccccc2C(=O)NCC2CCCO2)n1 (centres undefined)
-2%	Cc1cccc(NS(=O)(=O)c2csc(C(N)=O)c2)c1
-2%	COc1ccc(S(=O)(=O)N2Cc3ccccc3CC2C(=O)N2CCOCC2)cc1OC (centres undefined)
4%	N[C@@H](C(=O)O)[C@H](CC(=O)O)c1ccc(Cl)cc1
-9%	COc1cccc(NC(=S)N(C)C2CCN(C)CC2)c1
11%	CC(=O)N1C(=O)N(C(C)=O)C2C1N(C(C)=O)C(=O)N2C(C)=O (centres undefined)
-13%	CCCc1cc(C(=O)Nc2c(C)nn(Cc3c(Cl)cccc3Cl)c2C)no1
2%	CCOc1cc(/C=N\NC(=O)CN2CCOCC2)ccc1OCc1ccc(F)cc1
25%	Cc1cccc(OCc2nnc3n2CCCCC3)c1
17%	O=C(Nc1c(F)cc(F)cc1Br)c1cc(-c2ccco2)on1
-10%	O=C(CSc1ncnc2c1nnn2Cc1ccc(F)cc1)NC1CCCC1
8%	COc1ccc(NC(=O)N2CCc3ccccc3C2)cc1
8%	O=C(Nc1ccccc1Cl)Nc1ccccc1Cl
5%	CCCN1CCN(C(=O)C2CCN(c3nnc(C)c4c(C)n(-c5ccc(C)cc5)nc34)CC2)CC1
-6%	COc1ccc(NS(=O)(=O)c2cccc(NC(=O)c3ccc(S(=O)(=O)N4CCCCCC4)cc3)c2)cc1
-12%	CCOC(=O)C1CCCN(C(=O)c2ccc(Cn3c(=S)[nH]c4cc(C(=O)OC)ccc4c3=O)cc2)C1 (centres undefined)
-14%	O=C(NC(=S)NCCSc1ccccc1)c1cccnc1
-6%	Cc1ccc(S(=O)(=O)Nc2c3ccccc3nc(=O)n2-c2ccccc2)cc1
?	COc1ccc(N2CCN(C(=O)CCCn3c(=O)[nH]c4ccsc4c3=O)CC2)cc1
1%&-13%	COc1ccc(C(=O)c2coc3ccc(O)cc23)cc1
-6%	CC(C)(C)NC(=O)c1ccccc1NC(=O)C1CCCO1 (centres undefined)
-2%	COC(=O)C1=C(C)N(C)C(=O)NC1c1cc2c(cc1Br)OCO2 (centres undefined)
-10%	FC(F)(F)c1ccccc1/C=N/n1c(C2CCCCC2)n[nH]c1=S
0%	CCOc1ccc(CCNC(=O)COC(=O)/C=C/c2ccc(OC)c(OC)c2)cc1OCC
11%	Cc1cc(C)cc(N2C(=O)CSC23C(=O)N(CC(=O)NC2CCCCC2)c2ccccc23)c1 (centres undefined)
-22%	O=S1(=O)N=C2CCCCCN2C(c2ccccc2)N1 (centres undefined)
3%	COC(=O)c1c(NC(=O)CCS(=O)(=O)c2ccccc2)sc2c1CCN(C)C2
2%	O=C(NC(=S)Nc1ccc(Cl)cn1)C(c1ccccc1)c1ccccc1
21%	COc1ccc(OC)c(NC(=O)N2CCCC(C(=O)c3ccccc3OC)C2)c1 (centres undefined)
11%	O=C(NCc1ccco1)c1cc(-c2ccc3c(c2)OCO3)on1
3%	CC(=O)N1CCN(S(=O)(=O)c2cccc(C(=O)NNC(=O)COc3ccc(Cl)cc3C)c2)CC1
-3%	CC(=O)Nc1ccc(NC(=O)c2ncoc2-c2ccco2)cc1
-10%	CC1Nc2ncnc(N3CCOCC3)c2N(Cc2ccc(Cl)cc2)C1=O (centres undefined)
3%	COc1ccc2c(C)c(CCC(=O)NCCc3ccccc3OC)c(=O)oc2c1
-10%	Cc1nc2ccccc2c(=O)n1CCc1ccccc1
?	O=C(C1CCC1)N1CCc2cc(S(=O)(=O)NCC3COc4ccccc4O3)ccc21 (centres undefined)
0%	O=C(CCNC(=O)c1ccccc1)Oc1ccc([N+](=O)[O-])cc1
-3%	COc1cc([N+](=O)[O-])ccc1-c1ccc(/C=N/NC(N)=O)o1
-3%	Cc1ccc(C(=O)CC2(O)C(=O)N(C)c3ccccc32)o1 (centres undefined)
14%	NS(=O)(=O)c1ccc(NC=C2C(=O)OC3(CCCCC3)OC2=O)cc1

(cont.)
VDR inh	compound
-14%	COc1cccc(-c2cc(C(=O)Nc3ccc(N(C)C(C)=O)cc3)c3cc(Br)ccc3n2)c1
-2%	Clc1ccc(CNC2CCCC2)cc1
-5%	C/C(Cc1ccccc1)=N\NC(=O)CNC(=O)c1ccc(Cl)cc1
6%	CCOC(=O)c1sc(N(Cc2ccccc2)C(=O)COC(=O)c2ccc(O)cc2)nc1C
-5%	COc1ccc(-c2ccc(=O)n(Cc3cccc(Cl)c3)n2)cc1
3%	Cc1ccc(NS(=O)(=O)c2cnc(N)nc2)c(C)c1
8%	CCSc1nn2c(=O)c3ccccc3nc2s1
16%	CCOc1cc(S(=O)(=O)n2ccnc2C(C)C)ccc1Cl
-18%	CCOC(=O)[C@H]1[C@H]2COc3cc(OC)ccc3[C@@H]2N2C(=O)CN(Cc3ccc(C)cc3)C(=O)[C@@]12C
0%	Fc1ccc(Nc2nc(Oc3ccccc3F)nc(N3CCCC3)n2)cc1
11%	CCC(C)NC(=O)c1ccccc1NC(=O)CN1C(=O)c2cccc3cccc1c23 (centres undefined)
-11%	COC(=O)Cn1c(=O)oc2ccc(C)cc21
-13%	CCC(=O)N1CCc2cc(S(=O)(=O)N3CCN(c4ccccc4Cl)CC3)ccc21
-2%	COc1ccc(C)cc1Nc1nc2cc(Cl)c(Cl)cc2nc1-n1nc(C)cc1C
-19%	O=S(=O)(c1cc(C(F)(F)F)ccc1Cl)N1CCN(c2ccccn2)CC1
-15%	CCc1nc2c(sc3nc4c(cc32)COC(C)(C)C4)c(=O)n1Cc1ccccc1
3%	O=C(COC(=O)/C=C/c1ccccc1)NCCNC(=O)COC(=O)/C=C/c1ccccc1
-16%	CCCCC(CC)C(=O)Nc1cc(C(=O)NCCC)ccc1N1CCC2(CC1)CC(c1cccc(Br)c1)=NO2 (centres undefined)
14%	O=C1[C@@H]2CSCN2C(=O)CN1Cc1ccccc1F
-1%	Cc1ccc(OCC(=O)Nc2cc(S(=O)(=O)N3CCOCC3)ccc2N2CCCC2)cc1
-24%	O=C(O)CC(c1ccc(C(F)(F)F)cc1)N1Cc2ccccc2C1=O (centres undefined)
3%	COc1ccc(C)cc1-n1c(N)c(C#N)c(C#N)c1-c1ccc(OC)c(OC)c1OC
16%	O=C(c1cccc(C(F)(F)F)c1)N1CCN(CCc2ccccc2)CC1
10%	CCOC(=O)C1C(c2ccccc2)C(C(=O)OCC)S(=O)(=O)C(CCN(CC)CC)S1(=O)=O (centres undefined)
-13%	COc1cc(C(=O)N(C)C2CCCCC2)ccc1OC1CCN(C(C)=O)CC1

Shown with each value named: 3 of the compounds above
O=C(c1cccc(C(F)(F)F)c1)N1CCN(CCc2ccccc2)CC1
  VDR inh = 16%

Clc1ccc(CNC2CCCC2)cc1
  VDR inh = -2%

CCC(=O)N1CCc2cc(S(=O)(=O)N3CCN(c4ccccc4Cl)CC3)ccc21
  VDR inh = -13%

Further results.
VDR inh	compound
-11%	O=C(Nc1ccc(S(=O)(=O)NC2=NCCCCC2)cc1)c1ccccc1Cl
-20%	O=[N+]([O-])c1ccc(C=Nc2ccc(Cl)cc2Cl)s1
-15%	O=C(CSc1nnnn1C1CC1)N1CCN(c2ccc(O)cc2)CC1
-5%	Cc1ccc(NS(=O)(=O)c2ccc3c(c2)n(C)c(=O)n3C)cc1
28%	CCc1c(C)nc2c(-c3ccccc3)c(-c3ccccc3)[nH]n2c1=O
4%	Cc1ccccc1NC(=O)C(=O)NCC1(c2ccccc2)CCCC1
-6%	CCc1ccc(NC(=O)Cc2ccc(NC3=NC4CS(=O)(=O)CC4S3)cc2)cc1 (centres undefined)
-18%	C#CCOc1nc(OCC#C)nc(OCC#C)n1
-15%	CC(OC(=O)C1CCN(S(=O)(=O)c2ccc(F)cc2)CC1)C(=O)NC1CCCCC1C (centres undefined)
-4%	NC(=O)c1ccc(Oc2ccc(-c3nnco3)cc2)c([N+](=O)[O-])c1
-9%	COCCC(=O)N1CCC(Oc2ccc(C(=O)NCc3nccn3C)cc2)CC1
-17%	Cc1ccc(CSCC(=O)N(C)CC(=O)Nc2c(Cl)cccc2Cl)cc1
-11%	Cc1cccc(/C=C2\Sc3ccc(C(=O)N4CCC(C)CC4)cc3N(C)C2=O)c1
-11%	O=C(Nc1cccnc1)c1ccc(F)c(S(=O)(=O)N2CCOCC2)c1
12%	COC(=O)c1scc(C)c1NC(=O)Nc1ccccc1
-5%	COC(=O)c1ccc(S(=O)(=O)N2C3CCC2CC(NC(=O)C2CC2)C3)cc1 (centres undefined)
-16%&8%	CC(=O)N1CCN(C)CC1
9%	CCc1cccc(C)c1N(C(=O)Cn1c(CO)nc2ccccc21)C(C)COC (centres undefined)
-11%	O=C(O)C1CC=CCC1C(=O)N1CCN(c2nc(-c3ccccc3)c3ccccc3n2)CC1 (centres undefined)
0%	O=[N+]([O-])c1ccc(N2CCN(Cc3ccc4c(c3)OCO4)CC2)nc1
-2%	Cc1cccc(/C=N/NC(=O)c2ccc(F)cc2)n1
2%	CC(/C=C/C1(O)C(C)CC(O)CC1(C)C)OC1OC(CO)C(O)C(O)C1O (centres undefined)
9%	COc1ccc(NC(=O)CSc2ccccc2)c(OC)c1
18%	Cc1cccc(C(=O)NNc2ncnc3c2cnn3C)c1
-18%	CCC(C)c1ccc(NC(=S)NCc2ccccc2OC)cc1 (centres undefined)

Reformatted as tab-separated lines: part of the list above
SMILES	VDR inh
O=C(Nc1ccccc1Cl)Nc1ccccc1Cl	8%
CCCN1CCN(C(=O)C2CCN(c3nnc(C)c4c(C)n(-c5ccc(C)cc5)nc34)CC2)CC1	5%
COc1ccc(NS(=O)(=O)c2cccc(NC(=O)c3ccc(S(=O)(=O)N4CCCCCC4)cc3)c2)cc1	-6%
CCOC(=O)C1CCCN(C(=O)c2ccc(Cn3c(=S)[nH]c4cc(C(=O)OC)ccc4c3=O)cc2)C1 (centres undefined)	-12%

(next part)
VDR inh	compound
7%	CCn1c(=O)c2cc(C(=O)NC(C)C)sc2c2ccccc21
1%	Cc1noc(C)c1S(=O)(=O)N1CCC(C(=O)Nc2ccccn2)CC1
?	Cc1cccc(NC(=O)CCS(=O)(=O)c2cc3c(cc2Cl)NC(=O)CO3)c1
-17%	COc1ccc([C@@H]2CC(=O)c3c(O)cc(O[C@@H]4OC(CO[C@@H]5OC(C)[C@H](O)[C@@H](O)[C@H]5O)[C@@H](O)[C@H](O)[C@H]4O)cc3O2)cc1O (some centres undefined)
-27%	Cc1cc(C)n(NC(=S)NC2CCCCC2)c(=O)c1C#N
-7%	NNC(=O)c1oc2ccccc2c1-n1cccc1
2%	Cc1ccc(C)c(C(=O)CCC(=O)O)c1
-13%	COc1ccc(C2CC(C(C)(C)C)=NN2c2ccc(S(N)(=O)=O)cc2)cc1 (centres undefined)
7%	CCCCN1C(=O)NC(NC(=O)c2ccco2)(C(F)(F)F)C1=O (centres undefined)
6%	S=C1NCN(Cc2ccco2)CN1c1ccccc1
4%	Cc1nn(C(=O)c2cccc([N+](=O)[O-])c2C)c(C)c1S(=O)(=O)N1CCCCCC1
-2%	Cc1cccc(-n2cnc(C(=O)NC3CCCCCC3)c2)n1
-25%	O=C1/C(=C/c2ccncc2)SC(=S)N1C1CCS(=O)(=O)C1 (centres undefined)
28%	COc1cccc(Oc2ccc3nnc(C(F)(F)F)n3n2)c1
-25%	Cc1ccc(S(=O)(=O)N2CCN(c3ncccn3)CC2)cc1C
15%	CC(=O)C1C(c2ccccc2)c2c(n[nH]c2C)CC1(C)O (centres undefined)
-4%	CC1=C(C)CC(C(=O)Nc2cccc([N+](=O)[O-])c2)C(C(=O)O)C1 (centres undefined)
-19%	O=C(O)/C(=C\c1cccs1)c1ccc(F)cc1
?	O=[N+]([O-])c1ccc(C2NS(=O)(=O)N=C3CCCCCN32)cc1 (centres undefined)
-1%	CCCCCCC1CCC(C(=O)NC(CCSC)C(=O)NC(C(=O)OC)C(C)C)CC1 (centres undefined)
17%	CC1CCN(c2ccccc2NC(=S)NC(=O)C(C)(C)C)CC1
12%	CCOc1ccc(C(=O)Nc2cccc(C(=O)OCc3cc(=O)n4cc(C)sc4n3)c2)cc1
-13%	CCOCCCn1c(=S)[nH]c2cc(C(=O)N3CCC(C(N)=O)CC3)ccc2c1=O
7%	CCOc1ccc2nc(N3CCN(C(=O)CS(=O)(=O)c4ccc(F)cc4)CC3)sc2c1
-21%	CC(O)CCc1ccc(O)cc1 (centres undefined)
5%	COc1cccc(NC(=O)C2CCCN2S(=O)(=O)c2ccc3nc(-c4ccccc4)[nH]c3c2)c1 (centres undefined)
12%	C/C(=N\NC(=O)CNC(=O)c1ccc2c(c1)OCCO2)c1ccco1
-9%	CCN(c1cccc(C(F)(F)F)c1)S(=O)(=O)c1ccc2c(c1)CCN2C(C)=O
-3%	COc1cccc(-n2c(SCC(=O)OC(C)C)nnc2-c2cccnc2)c1

Some of the compounds tested; the hit share may differ from the screen's.
